Compound activity deposited in PubChem BioAssay by National Center for Advancing Translational Sciences (NCATS).
Rango dissoc inh – inhibition of RanGTP-driven Rango-importin beta dissociation | actives 0.071% (n = 340,000) | Biochemical FRET Rango-importin beta, RanGTP-induced dissociation | O95149+P62826 | Potency, µM (titrated, usually from 46.1 µM), inactives show at the top dose activity change, negative = inhibition; active means falling FRET ratio curve, often poorly fitted, with flat reads before Ran was added; inconclusive means other falling curves, or compound fluorescence or quenching; inactive means flat or rising ratio curve;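 also: potency is read from the fitted curve at half-maximal effect; % of control where 0% means no effect; nearly all actives have a fitted effect of over 45% in size; -100% = wells without RanGTP and RCC1; the record marks most hits as doubtful in a second field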
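Compounds preincubate 5 min with complex of recombinant Rango and importin beta in PBS with 1 mM DTT. Ran (0.6 uM) loaded with 2 mM GTP plus 0.2 uM RCC1 starts dissociation; FRET is recorded 45 min later.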
GLA inh pH 4.5 – inhibitors of human alpha-galactosidase A at pH 4.5 | P06280 | purified enzyme, 4-MU-alpha-Gal fluorescence, pH 4.5 | activity change, negative = inhibition, % at 105 µM | 230,000 tested, under 10 active | AID 1467; inconclusive = small, poorly fitted or top-dose-only inhibition, or a rising curve; inactive = flat fitted curve, though single readings scatter; no compound was filed as active;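 also: 0% = full activity with enzyme and -100% = basal without enzyme; dose as in the result columns while the protocol names 77 µM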
Target sequence (P06280 whole entry, looked up): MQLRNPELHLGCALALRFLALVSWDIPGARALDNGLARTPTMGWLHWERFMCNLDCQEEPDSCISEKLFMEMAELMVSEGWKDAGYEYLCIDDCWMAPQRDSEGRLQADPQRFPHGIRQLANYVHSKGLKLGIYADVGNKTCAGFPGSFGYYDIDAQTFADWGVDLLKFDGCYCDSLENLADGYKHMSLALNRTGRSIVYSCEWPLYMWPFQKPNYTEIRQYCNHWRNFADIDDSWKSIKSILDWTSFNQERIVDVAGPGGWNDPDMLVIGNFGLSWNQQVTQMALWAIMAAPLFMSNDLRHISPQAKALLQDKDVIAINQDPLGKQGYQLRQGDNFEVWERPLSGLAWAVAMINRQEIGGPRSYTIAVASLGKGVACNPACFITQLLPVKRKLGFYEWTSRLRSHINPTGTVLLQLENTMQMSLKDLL
miR-21 FLuc – miR-21 reporter, rising signal. HeLa miR-21 FLuc reporter, luciferase, 48 h. Potency, µM (series often up to 38.3 µM), for inactives: top-dose reporter change, positive = more light. 340,000 tested, under 10 active; active = well fitted rising curve with a large enough effect; inconclusive = small, poorly fitted or top-dose-only effect; inactive = no such curve, though single readings can be large or run the other way;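 also: % of control where 0% means no effect; miR-21 action dims this reporter so a rising signal means less miR-21 action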
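HeLa cells stably expressing CMV-driven firefly luciferase with a downstream miR-21 binding sequence, endogenously expressing miR-21, were treated with titrations (up to about 40uM final) for 48 hours at 37 degree Celsius. Luciferase luminescence was read after lysis.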
Rango complex inh – prevents formation of the Rango-importin beta complex; actives 0.031% (n = 340,000); Rango CFP/YFP FRET sensor + importin beta, 45 min; Potency, µM (series often up to 92.2 µM), inactives show at the top dose inhibition of complex formation; active = rising FRET ratio curve, often small or poorly fitted; inconclusive = mostly compound fluorescence or quenching in the first reads; inactive = flat curves in all reads;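 also: potency is read from the fitted curve at half-maximal effect; 0% = DMSO wells and 100% = buffer wells lacking importin beta; nearly all actives have a fitted effect of over 15% in size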
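FRET biosensor Rango (snurportin 1 IBB between N-terminal EYFP and C-terminal Cerulean), 50 nM in PBS/1 mM DTT/0.02% Tween-20/0.1% BSA, preincubated 5 min RT with compound; 0.125 microM importin beta added, 45 min RT, CFP/YFP FRET ratio read.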
* = called active by the depositor; ? = inconclusive; / = not tested or not shown; & = joins results of further samples. This is a subset; count on the stated rates, not on these rows.

The opening 7 records, ahead of the listing:
Short forms – A = Rango dissoc inh; B = GLA inh pH 4.5; C = miR-21 FLuc; D = Rango complex inh
[1] NC(=O)c1cccc(-c2cc(Nc3ccc(OC(F)(F)F)cc3)ncn2)c1
  A: 18%	B: -13	C: 23%	D: -0.3%

[2] CCOc1ccccc1C(N)=O
  A: -6%	B: /	C: /	D: 1.7%

[3] Cc1nc2ccccn2c(=O)c1CCN1CCC(C(=O)c2ccc(F)cc2)CC1
  A: 0%	B: 3&5	C: 0%	D: -0.2%

[4] C1CCC(C(CC2CCCCN2)C2CCCCC2)CC1 (stereo not drawn)
  A: 8%&7%	B: -12	C: ?	D: 0.2%&3.5%

[5] Cn1c(=O)c2c(ncn2CC2OCCO2)n(C)c1=O
  A: -7%	B: -14	C: 3%	D: -0.1%

[6] c1ccc(CC2=NCCN2)cc1
  A: -16%	B: 6&6	C: -3%	D: -0.1%

[7] CC(=O)c1ccc2c(c1)N(CCCN(C)C)c1ccccc1S2
  A: -7%	B: -5	C: /	D: 0.0%

The whole of this part, repeating the preview:
Short forms – A = Rango dissoc inh; B = GLA inh pH 4.5; C = miR-21 FLuc; D = Rango complex inh
[1] NC(=O)c1cccc(-c2cc(Nc3ccc(OC(F)(F)F)cc3)ncn2)c1
  A: 18%	B: -13	C: 23%	D: -0.3%

[2] CCOc1ccccc1C(N)=O
  A: -6%	B: /	C: /	D: 1.7%

[3] Cc1nc2ccccn2c(=O)c1CCN1CCC(C(=O)c2ccc(F)cc2)CC1
  A: 0%	B: 3&5	C: 0%	D: -0.2%

[4] C1CCC(C(CC2CCCCN2)C2CCCCC2)CC1 (stereo not drawn)
  A: 8%&7%	B: -12	C: ?	D: 0.2%&3.5%

[5] Cn1c(=O)c2c(ncn2CC2OCCO2)n(C)c1=O
  A: -7%	B: -14	C: 3%	D: -0.1%

[6] c1ccc(CC2=NCCN2)cc1
  A: -16%	B: 6&6	C: -3%	D: -0.1%

[7] CC(=O)c1ccc2c(c1)N(CCCN(C)C)c1ccccc1S2
  A: -7%	B: -5	C: /	D: 0.0%

[8] COc1ccc(C(=O)CC(=O)c2ccc(C(C)(C)C)cc2)cc1
  A: -11%	B: -1	C: /	D: -3.9%

[9] O=C(NCCc1c[nH]c2ccccc12)c1cccnc1
  A: 0%	B: -2	C: -18%	D: 0.1%

[10] COc1cc2c(c(OC)c1OC)-c1c(cc3c(c1OC)OCO3)[C@@H](OC(C)=O)[C@H](C)[C@H](C)C2
  A: 25%	B: -9	C: 12%	D: -0.7%

[11] CC[N+](C)(CC)CCOC(=O)C(O)(c1ccccc1)C1CCCCC1 (stereo not drawn)
  A: -10%	B: /	C: -5%	D: 0.6%

[12] C[C@]12CCC(=O)C=C1CC[C@@H]1[C@@H]2CC[C@@]2(C)[C@H]1CC[C@]2(O)C(=O)CO
  A: 21%	B: 5	C: -26%	D: -3.1%

[13] CCOc1ccc(C(=O)OCCN(CC)CC)cc1
  A: -5%	B: 0&2	C: -5%	D: -0.9%

[14] Oc1ccc(/C=C/c2cc(O)cc(O)c2)cc1
  A: 1%	B: -2&-1&-2	C: 6%	D: -4.5%

[15] CCCn1cnc2c1c(=O)n(CCCCC(C)=O)c(=O)n2C
  A: 16%	B: 3	C: /	D: -1.8%

(cont.)
Short forms – A = Rango dissoc inh; B = GLA inh pH 4.5; C = miR-21 FLuc; D = Rango complex inh
[16] CCC(C)n1ncn(-c2ccc(N3CCN(c4ccc(OCC5COC(Cn6cncn6)(c6ccc(Cl)cc6Cl)O5)cc4)CC3)cc2)c1=O (stereo not drawn)
  A: 8%	B: -7&-8&-5	C: -17%&2%	D: 0.4%

[17] COc1cc2c(cc1OC)C(=O)C(CC1CCN(Cc3ccccc3)CC1)C2 (stereo not drawn)
  A: 28%	B: -1	C: 12%	D: -3.6%

[18] CC(COc1ccccc1)NC(C)C(O)c1ccc(O)cc1 (stereo not drawn)
  A: 4%	B: 2	C: -13%	D: 2.7%

[19] COc1ccccc1N1CCN(CCCNc2cc(=O)n(C)c(=O)n2C)CC1
  A: /	B: 3&6&2&-4&-15	C: -1%	D: /

[20] c1ccc(CN(CC2=NCCN2)c2ccccc2)cc1
  A: 14%&4%	B: -1&2&6&-3&0	C: -6%&0%	D: -0.7%&1.4%

[21] CCN(CC)CCOC(=O)C1(c2ccccc2)CCCC1
  A: -5%	B: -5	C: -5%	D: 0.6%

[22] O=C(c1ccc(F)cc1)C1CCN(CCn2c(=O)[nH]c3ccccc3c2=O)CC1
  A: 27%&-15%	B: 6&1&5&0&0	C: -1%	D: -0.5%&-2.8%

[23] CC(=O)NC(Cc1ccccc1)C(=O)O (stereo not drawn)
  A: -3%	B: 2	C: -3%	D: 4.0%

[24] CCOC(=O)c1ccc(N)cc1
  A: 11%	B: -1&2	C: /	D: 14%

[25] CC1(C)Cc2c(sc(NC(=S)NC(=O)c3ccccc3)c2C(=O)O)CO1
  A: 2%	B: -3	C: -7%	D: -4.3%

[26] CC(=O)OCC1=C[C@@H]2OC(=O)C3=CO[C@@H](O[C@@H]4O[C@H](CO)[C@@H](O)[C@H](O)[C@H]4O)[C@H]1[C@@H]32
  A: 10%	B: /	C: /	D: -1.0%

[27] CN1CCOC(c2ccccc2)c2ccccc2C1 (stereo not drawn)
  A: -17%	B: -2	C: -3%	D: -3.4%

[28] CN(C)CCOC(C)(c1ccccc1)c1ccccn1 (stereo not drawn)
  A: -2%	B: -3&-6&3&5	C: -4%&-1%	D: ?

[29] CCN(CC)CCNC(=O)c1cc(Cl)c(N)cc1OC
  A: -8%	B: 1&2&-4	C: -7%	D: 0.0%

[30] CC(C(=O)O)c1ccc(C(=O)c2cccs2)cc1 (stereo not drawn)
  A: -18%	B: 3	C: /	D: 0.1%

(cont.)
Short forms – A = Rango dissoc inh; B = GLA inh pH 4.5; C = miR-21 FLuc; D = Rango complex inh
[31] Cc1c(NC(=O)c2cccnc2)c(=O)n(-c2ccccc2)n1C
  A: -4%	B: -12&2&7	C: -2%	D: -1.7%

[32] OCCN1CCN(CCCN2c3ccccc3Sc3ccc(Cl)cc32)CC1
  A: -20%	B: -13&-3&5	C: ?	D: 4.3%

[33] O=C(CCNNC(=O)c1ccncc1)NCc1ccccc1
  A: -8%	B: 5&-23&0	C: 3%	D: -6.5%

[34] CCCNC(C)C(=O)Nc1c(C)csc1C(=O)OC (stereo not drawn)
  A: -8%	B: /	C: /	D: -1.9%

[35] COc1ccc(C(=O)NCc2ccc(OCCN(C)C)cc2)cc1OC
  A: -10%	B: /	C: /	D: -2.9%

[36] O=C(CCN1CCC(c2ccccc2)C1)c1ccc2c(c1)OCCO2 (stereo not drawn)
  A: 15%	B: -3	C: ?	D: 0.6%

[37] COc1ccc(/C=C/C(=O)Nc2ccccc2C(=O)O)cc1OC
  A: -18%	B: -3&0&0	C: ?	D: 2.8%

[38] C=CC1=C(C(=O)O)N2C(=O)[C@@H](NC(=O)/C(=N\O)c3csc(N)n3)[C@H]2SC1 (stereo in doubt)
  A: 2%	B: /	C: /	D: -7.3%

[39] COC(=O)c1ccc(O)cc1
  A: -3%	B: -2	C: -3%	D: -1.9%

[40] CC12CCC(CC1)C(C)(C)O2
  A: 4%	B: -2	C: /	D: -0.7%

[41] CN1CCN(CCC(=O)N2c3ccccc3Sc3ccc(C(F)(F)F)cc32)CC1
  A: -1%	B: -6	C: -6%	D: 4.9%

[42] CC1COc2c(N3CCN(C)CC3)c(F)cc3c(=O)c(C(=O)O)cn1c23 (stereo not drawn)
  A: 4%	B: -9&2&3&-9	C: 1%	D: 3.9%

[43] CN1CCN(C(c2ccccc2)c2ccccc2)CC1
  A: -21%	B: 3&1	C: /	D: 5.9%

[44] CC(=O)c1ccc(S(=O)(=O)NC(=O)NC2CCCCC2)cc1
  A: ?	B: -4&4	C: /	D: -2.9%

[45] CCOc1ccc(NC(=O)Cn2cc(C(=O)c3ccco3)c3ccccc32)cc1
  A: 5%	B: 7	C: -13%&-6%	D: 4.6%

(listing goes on)
Short forms – A = Rango dissoc inh; B = GLA inh pH 4.5; C = miR-21 FLuc; D = Rango complex inh
[46] OC(C#CCN1CCCC1)(c1ccccc1)c1ccccc1
  A: 0%	B: /	C: -4%	D: 2.7%

[47] CC(=O)Nc1ccc(C(=O)O)cc1
  A: 2%	B: /	C: /	D: -3.5%

[48] Cc1cc(-c2ccccc2)nnc1NCCN1CCOCC1
  A: -2%	B: 1&5	C: -6%	D: -0.9%

[49] CCCCCCO
  A: -28%	B: /	C: /	D: 1.7%

[50] NC(=O)c1cn(Cc2c(F)cccc2F)nn1
  A: -10%	B: /	C: /	D: 1.5%

Shown in markdown: part of the list above
| cpd | SMILES | Rango dissoc inh | GLA inh pH 4.5 | miR-21 FLuc | Rango complex inh |
| --- | --- | --- | --- | --- | --- |
| 49 | CCCCCCO | -28% | / | / | 1.7% |
| 47 | CC(=O)Nc1ccc(C(=O)O)cc1 | 2% | / | / | -3.5% |
